VDR inh = Inhibitors of the vitamin D receptor (VDR): qHTS; AID 504847, 2011; VDR-SRC2-3 peptide fluorescence polarization, 2 h; Potency, µM, for inactives: max response, negative = inhibition, usual class: inhibitors; 0.93% of 400,000 active; Vitamin D3 receptor (Homo sapiens), P11473; active means well fitted inhibition curve with a large enough effect; inconclusive means small, poorly fitted or top-dose-only effect, or another doubt; inactive means no such curve, though single readings can be large or run the other way; further: series mostly up to about 120 µM
Target sequence (P11473 whole entry, looked up): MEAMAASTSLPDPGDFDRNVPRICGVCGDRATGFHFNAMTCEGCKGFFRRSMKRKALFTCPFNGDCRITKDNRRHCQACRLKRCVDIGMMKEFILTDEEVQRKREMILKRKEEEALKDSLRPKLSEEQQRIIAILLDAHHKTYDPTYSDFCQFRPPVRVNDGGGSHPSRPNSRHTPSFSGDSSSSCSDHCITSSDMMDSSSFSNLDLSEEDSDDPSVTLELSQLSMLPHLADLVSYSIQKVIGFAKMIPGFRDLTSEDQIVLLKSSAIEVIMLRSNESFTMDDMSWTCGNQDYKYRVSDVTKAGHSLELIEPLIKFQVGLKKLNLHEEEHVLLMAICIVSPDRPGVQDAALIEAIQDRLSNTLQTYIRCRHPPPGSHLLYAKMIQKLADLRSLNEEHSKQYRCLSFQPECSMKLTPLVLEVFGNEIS
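Reagent solutions, kept cold and dark, are dispensed first; compounds are then pinned in at 23 nl, plates briefly spun, and incubated 2 h at ambient temperature. Inhibition of VDR–SRC2-3 peptide binding is read by fluorescence polarization.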
Active calls of the source: *. On the % scale 0 is the no-effect control and ±100 the full control effect; potency means the concentration at half of the fitted maximal effect. Not all compounds are listed (hit frequency here may not be typical).

Screening Cc1ccc(C)n1-c1ccncc1 returned VDR inh -1.9%.
CNC(=O)c1ccc(NC(=O)CCNC(=O)Nc2ccccc2)cc1 was read as VDR inh -13.8%.
`CCCCN1C2CCCC1CC(NC(=O)c1cccc(Cl)c1)C2` (centres undefined) gave VDR inh -23.8%.
`COc1ccc(NC(=O)C2CCN(S(=O)(=O)c3cn(C)nc3C)CC2)cc1` gave VDR inh 14.8%.
`Cc1c(C(=O)Nc2ccc(S(=O)(=O)N(C)C3CCN(C)CC3)cc2)oc2ccccc12` gave VDR inh -18.2%.
CN(NC(=O)c1ccco1)c1nc2ccccc2nc1C(F)(F)F was read as VDR inh 10.3%.
Screening COc1ccc2c(COC(=O)c3n[nH]c4ccccc34)cc(=O)oc2c1 returned VDR inh 22.7%.
Screening CCN(c1ccccc1)S(=O)(=O)c1ccc(Cl)c(NC(=O)CN2CCCCCC2)c1 returned VDR inh 2.0%.
Cc1ccc(OCCSc2nc3ccccc3n2CC(=O)O)cc1C was read as VDR inh -3.3%.
COc1ccc(C(=O)CCC(=O)Nc2ccccc2C)cc1 was read as VDR inh 15.9%.
CCC(c1nnc(SCC(=O)Nc2c(F)cccc2F)n1Cc1ccccc1)N(C)C (centres undefined) was read as VDR inh -15.6%.
`Cc1cc(=O)[nH]c(SCCCOc2ccccc2Cl)n1` gave VDR inh -10.0%.
For C/C(=N\O)C(=O)NCc1ccccn1 the results were VDR inh -13.0%.
O=C(NN(c1ccccc1)c1ccccc1)c1ccc([N+](=O)[O-])o1 was read as VDR inh -11.0%.
`Nc1n[nH]c(N)c1N=Nc1cccc(F)c1` gave VDR inh 5.2%.
CCc1ccc(-c2ccc(C(=O)C(F)(F)F)[nH]2)cc1 was read as VDR inh 9.1%.
For CC(=O)N1N=C(c2cccc(NS(C)(=O)=O)c2)CC1c1cccs1 (centres undefined) the results were VDR inh inconclusive.
Screening Cc1cc(-c2ccn[nH]2)c(C)s1 returned VDR inh 25.4%.
Screening COc1ccc(CCNC(=O)CCNS(=O)(=O)c2cccc(Cl)c2)cc1OC returned VDR inh 5.3%.
Screening Cc1ccc(NC(=O)CSc2nc3ccc(NC(=O)c4cccc(Cl)c4)cc3s2)c(C)c1 returned VDR inh 2.9%.
Screening C=C(Cl)COc1ccc2c(C)cc(=O)oc2c1 returned VDR inh 2.8%.
For COc1ccc(CCNC(=O)c2cc(=O)c3cc(C)c(C)cc3o2)cc1OC the results were VDR inh 8.9%.
Cc1cccc(N2CCN(C(=O)CS(=O)(=O)c3cccc4nsnc34)CC2)c1C was read as VDR inh 6.1%.
Screening O=C(NCCc1ccc(Cl)cc1)c1c2c(nc3ccccc13)C(=O)N(C1CCCCC1)C2 returned VDR inh 5.5%.
Screening Cc1cccc(N(Cc2ccccc2)C(=O)c2ccc(C)c(S(=O)(=O)N3CCOCC3)c2)c1 returned VDR inh 4.1%.
Screening COc1cc(/C=C/CN2CCC(CO)(CC3CCCCO3)CC2)ccc1O (centres undefined) returned VDR inh -18.2%.
`CC(=O)Nc1ccc(S(=O)(=O)N2CCN(C(=O)N3CCCCCC3)CC2)cc1` gave VDR inh 4.4%.
For COc1ccc(NS(=O)(=O)c2ccc(NC(=O)N3CCCC3)cc2)cc1 the results were VDR inh 3.5%.
CC(=O)c1ccc(NC(=O)c2cc(-c3ccc(Cl)c(Cl)c3)on2)cc1 was read as VDR inh -2.2%.
O=c1[nH]c(=S)c2ncn(-c3ccccc3)c2[nH]1 was read as VDR inh inconclusive.
Screening O=C(CSCc1ccc(Cl)cc1)Nc1ccc(S(=O)(=O)N2CCCCCC2)cc1 returned VDR inh -3.4%.
For COC(=O)CCc1c(C)nc(N)[nH]c1=O the results were VDR inh 12.1%.
Cc1cccc(C)c1NC(=O)CN1C(=O)S/C(=C\c2cccn2-c2cccc(C(=O)O)c2)C1=O was read as VDR inh -15.6%.
Screening Cc1cc(/C=C2/SC(=S)N(c3cccc(C(F)(F)F)c3)C2=O)c(C)n1-c1cccnc1 returned VDR inh 11.7%.
Screening Cc1cccc(NS(=O)(=O)c2cccc(C(=O)N3CCN(S(=O)(=O)c4ccccc4)CC3)c2)c1 returned VDR inh 6.8%.
Screening O=C(c1cccc(C(F)(F)F)c1)N1CCC(O)(CS(=O)(=O)Cc2ccc(Cl)cc2)CC1 returned VDR inh -11.4%.
For CCc1oc(C(=O)O)cc1COC the results were VDR inh 5.6%.
Cc1cc(C)n(C(=O)c2ccc([N+](=O)[O-])cc2Cl)n1 was read as VDR inh -11.0%.
Screening Cc1cc(=O)[nH]c(SCC(=O)OCc2ccccc2)c1C#N returned VDR inh -22.7%.
CCCCOc1ccc(/C=N/NC(=S)Nc2cccc(C)c2C)cc1 was read as VDR inh 4.4%.
COc1ccccc1-c1cc(C(F)(F)F)nc(NCc2cccs2)n1 was read as VDR inh -5.9%.
Screening O=C(Nc1ccc(Cl)c(Cl)c1)c1csc(-c2ccccc2)n1 returned VDR inh 18.5%.
`CNS(=O)(=O)c1cccc(C(=O)OCC(=O)c2c(N)n(Cc3ccccc3)c(=O)n(C)c2=O)c1` gave VDR inh -20.5%.
`O=C(COC(=O)/C=C/c1ccc(F)cc1)NCc1ccc2c(c1)OCO2` gave VDR inh -4.3%.
`CNc1nc(C)c(C(C)=O)cc1C#N` gave VDR inh -0.6%.
Screening O=C(O)CNC(=O)c1ccc(NS(=O)(=O)c2ccc3ccccc3c2)cc1 returned VDR inh -2.4%.
For O=S(=O)(NCC(Nc1ccc(Cl)cc1)c1ccccc1)c1ccc(Cl)cc1 (centres undefined) the results were VDR inh -9.1%.
For Cc1cc(F)ccc1NC(=O)CCS(=O)(=O)c1cccc2nsnc12 the results were VDR inh 8.4%.
CCN(CC)S(=O)(=O)c1cc(NC(=O)C(=O)c2c(-c3ccccc3)cc3ccccn23)ccc1C was read as VDR inh 21.6%.
CN(CC(=O)Nc1cccc(F)c1)CC(=O)Nc1cccc(S(=O)(=O)N2CCCCC2)c1 was read as VDR inh -15.6%.
Screening CC(=O)NS(=O)(=O)c1ccc(NC(=S)NC(=O)C2CCC2)cc1 returned VDR inh 12.3%.
CCOc1cc(-c2nnc(NC(=O)c3ccco3)o2)cc(OCC)c1OCC was read as VDR inh -3.4%.
Screening COc1cccc(NC(=O)Cn2c(=O)n(CC3CCCO3)c(=O)c3ccccc32)c1 (centres undefined) returned VDR inh -13.8%.
`C=C1C(=O)OC2C1CC/C(C)=C/CCC1(C)OC21` (centres undefined) gave VDR inh inconclusive.
Screening CCOC(=O)C1(Cc2ccccc2C)CCCN(C(=O)CCn2nccc2C)C1 (centres undefined) returned VDR inh -5.7%.
`CCOC(=O)Cn1nc(N2CCN(c3ccc(F)cc3)CC2)ccc1=O` gave VDR inh -5.3%.
Screening COc1cc(NC(=O)NCCc2c(C)nn(C)c2C)cc(OC)c1OC returned VDR inh -6.3%.
Screening CCc1ccc(NC(=S)Nc2cc(OC)c(NC(=O)C(C)C)cc2OC)cc1 returned VDR inh 2.5%.
Screening CC1CN(C(=O)N2CCC(C(=O)NC3CCCCCC3)CC2)c2ccccc2O1 (centres undefined) returned VDR inh 2.6%.
`CC(C)CN(C(=O)C1CCCC1)C1CCS(=O)(=O)C1` (centres undefined) gave VDR inh -5.1%.
For Cc1ccc(N/N=C/c2cccnc2)cc1 the results were VDR inh -3.2%.
`OCc1ccccc1OCCCN1CCC(Cc2ccccc2)CC1` gave VDR inh -5.3%.
For COc1ccc(CCNC(=O)CSc2nnc(C(C)N(C)C)n2Cc2ccccc2)cc1OC (centres undefined) the results were VDR inh -14.4%.
Screening COC(=O)c1c(C)c[nH]c1C returned VDR inh 1.6%.
S=c1[nH]nc(-c2ccco2)n1/N=C/c1ccccc1 was read as VDR inh 1.5%.
COc1ccc(C(N)=S)cc1 was read as VDR inh -11.8%.
Screening CCOc1ccc(C(=O)NCCc2sc3nc(-c4ccc(Cl)cc4)nn3c2C)cc1OCC returned VDR inh 7.3%.
Cc1ccc(Cn2ccnc2SCC(=O)NCc2ccc(F)cc2)cc1 was read as VDR inh 4.7%.
CC(=O)Nc1ccc(C)c(NS(=O)(=O)c2cccc(C(F)(F)F)c2)c1 was read as VDR inh -5.2%.
`CCCCn1c(O)c(N=NC(=O)c2ccco2)c2ccccc21` gave VDR inh 50.1µM*.
Cc1ccc(NC(=O)c2ccc(C)c(S(=O)(=O)N3CCCCCC3)c2)cc1 was read as VDR inh 9.4%.
CCOc1ccc(OCCSc2nnnn2-c2ccccc2)cc1 was read as VDR inh 4.4%.
Screening COc1ccc(N(C(C)=O)C2C=CS(=O)(=O)C2)c(OC)c1 (centres undefined) returned VDR inh 7.9%.
`Cc1ccc(-n2ccc(-c3nn(-c4ccccc4)ccc3=O)n2)cc1` gave VDR inh 4.7%.
Screening COc1ccc(Cc2nnc(SCC(=O)N3CCCC(C)C3)o2)cc1 (centres undefined) returned VDR inh -2.4%.
CC(=O)Nc1ccc(S(=O)(=O)Oc2ccc(/C=N/N=C3/NC(=O)C(CC(=O)O)S3)cc2)cc1 (centres undefined) was read as VDR inh 3.9%.
COC(=O)C(Cc1c[nH]c2ccccc12)N1CCS(=O)(=O)CC1 (centres undefined) was read as VDR inh -12.5%.
CCc1nc(N2CCC3(CC2)OCCO3)c2nnn(Cc3ccccc3)c2n1 was read as VDR inh -3.1%.
`O=C1NC2(CCCC2)C(=O)N1CC(=O)N(Cc1ccccc1)c1ccccc1` gave VDR inh -7.8%.
`Cc1ccc(Cc2nnc(SCC(=O)Nc3ccccc3)[nH]c2=O)cc1` gave VDR inh -3.7%.
For Cc1ccc(/C=N/N2CCCCC2)o1 the results were VDR inh -8.1%.
`C=CCN1C(=O)/C(=C\c2cccs2)C(C(=O)OC)=C1C` gave VDR inh -7.3%.
For CC(=O)c1ccc(NC(=O)C2CCC(C)(C(=O)O)C2(C)C)cc1 (centres undefined) the results were VDR inh -8.5%.
For O=C(CCN1CCN(Cc2ccccc2)CC1)NNC(=O)Nc1cccc([N+](=O)[O-])c1 the results were VDR inh -7.9%.
For Cc1ccc(C)c(C(=O)COC(=O)C2CCN(c3ccc(C(F)(F)F)cn3)CC2)c1 the results were VDR inh 4.8%.
CCn1c(=O)cc(OCC(=O)N2CCc3ccccc32)c2ccccc21 was read as VDR inh -11.6%.
Screening COc1ccc(S(=O)(=O)N(Cc2ccccc2)Cc2nc3ccccc3c(=O)[nH]2)cc1 returned VDR inh 3.3%.
For CCc1nn2c(=O)cc(CSCC(=O)Nc3ccccc3F)nc2s1 the results were VDR inh -15.2%.
`O=C(NCc1ccncc1)C(=O)N/N=C/c1ccccn1` gave VDR inh 0.0%.
`CCc1cc2c(SCC(=O)N3CC(=O)Nc4ccccc43)ncnc2s1` gave VDR inh inconclusive.

Sorted by formula weight (lowest first): part of the list above.
COc1ccc(C(=O)CCC(=O)Nc2ccccc2C)cc1 was read as VDR inh 15.9%.
Screening COc1cc(NC(=O)NCCc2c(C)nn(C)c2C)cc(OC)c1OC returned VDR inh -6.3%.
`Cc1ccc(Cc2nnc(SCC(=O)Nc3ccccc3)[nH]c2=O)cc1` gave VDR inh -3.7%.

(listing goes on)
CC(=O)N(c1ccc2oc(=O)sc2c1)S(=O)(=O)c1cccc2cccnc12 was read as VDR inh inconclusive.
O=C(COc1ccc(Br)cc1)Nc1ccccc1C(=O)N1CCOCC1 was read as VDR inh 4.1%.
For O=C(O)C1CCCN(S(=O)(=O)Cc2ccccc2)C1 (centres undefined) the results were VDR inh 11.6%.
CCC(Sc1nc(C)cc(C)n1)C(=O)O (centres undefined) was read as VDR inh -6.9%.
Oc1c(C(c2ccc(Cl)cc2)N2CCC3(CC2)OCCO3)sc2nc(-c3ccco3)nn12 (centres undefined) was read as VDR inh 21.0%.
C#CCN1C(=O)S/C(=C\c2ccc(-c3ccc(Cl)c(C(=O)O)c3)o2)C1=O was read as VDR inh -6.0%.
`OC(CN1C2=NCCCN2c2ccccc21)c1ccc(Cl)cc1` (centres undefined) gave VDR inh -25.7%.
O=C1COc2ccc(S(=O)(=O)N3CCC(C(=O)NCc4ccc(F)cc4)CC3)cc2N1 was read as VDR inh 4.0%.
O=C(c1ccccc1)C1CCN(C(=O)C2CCC(=O)N(Cc3cccc(F)c3)C2)CC1 (centres undefined) was read as VDR inh -4.5%.
CC(C)OC(=O)c1sc2nc3c(cc2c1N)C(=O)CCC3 was read as VDR inh -9.6%.
Screening Oc1ccc(/C=C/c2nc(-c3ccccc3O)n(-c3ccccc3)n2)c(O)c1 returned VDR inh -1.3%.
COc1cccc(Cn2c(=O)c(-c3cn(C)c4ccccc34)nc3cncnc32)c1 was read as VDR inh -1.2%.
Cc1ccc(NC(=O)N2CCN(S(=O)(=O)c3ccccc3)CC2)cc1 was read as VDR inh 13.2%.
`C/C(=N/NC(=O)c1ccoc1C)C12CC3CC(CC(C3)C1)C2` gave VDR inh 3.6%.
`CCN1CCN(c2cc(C)c3cc(NC(=S)N4CCCC(C)C4)ccc3n2)CC1` (centres undefined) gave VDR inh -9.4%.
For CCOC(=O)C1=CN(Cc2ccc(OC)cc2)C=C(C(=O)OCC)C1c1cccs1 the results were VDR inh 18.6%.
For CC1CCCCN1C(=O)CSc1nnc(-c2cccc(Cl)c2)o1 (centres undefined) the results were VDR inh -9.0%.
For O=C(CCc1ccc(S(=O)(=O)NCCc2ccccc2)cc1)NCc1ccc2c(c1)OCO2 the results were VDR inh 18.4%.
For CCc1ccccc1S(=O)(=O)Cc1ccc(C(=O)NCc2ccc(Cl)cc2)o1 the results were VDR inh -28.5%.

Nothing new here: an excerpt of the list.
`C/C(=N/NC(=O)c1ccoc1C)C12CC3CC(CC(C3)C1)C2` gave VDR inh 3.6%.
`CCN1CCN(c2cc(C)c3cc(NC(=S)N4CCCC(C)C4)ccc3n2)CC1` (centres undefined) gave VDR inh -9.4%.
For CCOC(=O)C1=CN(Cc2ccc(OC)cc2)C=C(C(=O)OCC)C1c1cccs1 the results were VDR inh 18.6%.
For CC1CCCCN1C(=O)CSc1nnc(-c2cccc(Cl)c2)o1 (centres undefined) the results were VDR inh -9.0%.
For O=C(CCc1ccc(S(=O)(=O)NCCc2ccccc2)cc1)NCc1ccc2c(c1)OCO2 the results were VDR inh 18.4%.
For CCc1ccccc1S(=O)(=O)Cc1ccc(C(=O)NCc2ccc(Cl)cc2)o1 the results were VDR inh -28.5%.
